# Cruzain inh Det: inhibitors of Trypanosoma cruzi cruzain with detergent. hit rate 0.43% among 200,000. P25779. purified cruzain, Z-FR-AMC fluorescence, 0.01% Triton. Potency, µM, for inactives: max response, negative = inhibition, most hits filed as inhibitors;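 further: plate controls were neutral wells for no effect and buffer without enzyme for full effect; nearly all actives have a fitted effect of over 40% in size; top concentration of the series not given in the record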
# Target sequence (P25779 123-467 limits assumed): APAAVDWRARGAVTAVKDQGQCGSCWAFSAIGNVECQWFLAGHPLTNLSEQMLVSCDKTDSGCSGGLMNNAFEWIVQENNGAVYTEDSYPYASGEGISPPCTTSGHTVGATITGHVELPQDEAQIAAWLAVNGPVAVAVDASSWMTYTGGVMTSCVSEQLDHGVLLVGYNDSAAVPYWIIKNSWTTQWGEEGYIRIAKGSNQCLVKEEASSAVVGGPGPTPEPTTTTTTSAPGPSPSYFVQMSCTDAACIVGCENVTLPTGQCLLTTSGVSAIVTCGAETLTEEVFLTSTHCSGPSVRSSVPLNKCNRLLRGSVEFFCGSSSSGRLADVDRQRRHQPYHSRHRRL
#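 Sodium acetate buffer (100 mM, pH 5.5) containing 5 mM DTT and 0.01% Triton X-100 hosted 1.5 nM cruzain and test compound for 15 min at room temperature. Cleavage of 2 uM Z-FR-AMC was then tracked by fluorescence.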
# RE007 growth inh: less growth of the S. pombe RE007 Vpr strain; hit rate 0.21% among 360,000; Potency, µM (titrated, usually from 92.2 µM), for inactives: top-dose activity change, negative = less growth; S. pombe RE007 Vpr strain, BacTiter-Glo ATP luminescence, 24 h; control for the full effect not named in the record; active = well fitted falling curve with a large enough effect; inconclusive = small, poorly fitted or top-dose-only effect; inactive = no such curve, though single readings can be large or run the other way;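 further: on the % scale 0 is the no-effect control and ±100 the full control effect; nearly all actives have a fitted effect of over 50% in size; the assay follows cell death caused by Vpr and the record does not say whether a fall means rescue or toxicity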
#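 Fission yeast RE007 carrying one integrated HIV-1 vpr copy, seeded at OD 0.01 in PMG+AL medium with 23 nL pinned compound. Grown 24 h at 30 degrees; viability read by BacTiter-Glo luminescence after 5 min.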
# Cruzain inh noDet: blocks cruzain activity in detergent-free assay; P25779; purified cruzain, Z-FR-AMC fluorescence, no detergent; Potency, µM, without a hit: max response, negative = inhibition, hits mostly inhibitors; hit rate 2.3% among 200,000;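 further: plate controls were enzyme without inhibitor for no effect and buffer without enzyme for full effect; nearly all actives have a fitted effect of over 40% in size; top concentration of the series not given in the record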
#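 Detergent-free condition (0.00005% Triton X-100) in acetate buffer pH 5.5 with DTT. 1.5 nM enzyme and compound were pre-mixed 15 min, then 2 uM Z-FR-AMC substrate added; reaction progress from fluorescence change between first and third reads (60 s).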
# Marburg entry inh: inhibitors of Marburg virus binding or cell entry. Marburg virus pseudotyped entry inhibition, cell reporter; control for the full effect not named in the record; about a third of the inactives were read at about 46 µM. Potency, µM (highest dose often 37.8 µM), for inactives: top-dose activity change, negative = inhibition, usual class: inhibitors. hit rate 1.8% among 300,000; active = well fitted inhibition curve with a large enough effect; inconclusive = small, poorly fitted or top-dose-only effect, or effect the other way; inactive = flat fitted curve, though single readings scatter; tested in HEK293 cells; about a fifth of its hits are not listed in these tables; further: on the % scale 0 is the no-effect control and ±100 the full control effect; luciferase read-out
# SARS PLpro yeast: SARS-CoV PLP inhibition in yeast; hit rate 0.19% among 330,000; Potency, µM (highest dose often 32.9 µM), for inactives: at the top dose activity, positive = growth rescue; S. cerevisiae expressing SARS-CoV PLpro, growth rescue; control for the full effect not named in the record; AID 485353; active means well fitted rising curve with a large enough effect; inconclusive means small, poorly fitted or top-dose-only effect; inactive means no such curve, though single readings can be large or run the other way; further: 0% is about no effect; nearly all actives have a fitted effect of over 55% in size; growth read by luminescence after 48 h
# 2A StopGo: FMDV 2A StopGo reporter, luciferase signal; human cells with a luciferase reporter of 2A StopGo recoding; control for the full effect not named in the record; Potency, µM (doses to about 57.9 µM), inactives show at the highest dose signal change, negative = less light; hit rate 1.2% among 410,000; active = well fitted falling curve with a large enough effect; inconclusive = small, poorly fitted or top-dose-only effect; inactive = no such curve, though single readings can be large or run the other way; tested in HEK293T cells; further: on the % scale 0 is the no-effect control and ±100 the full control effect; nearly all actives have a fitted effect of over 45% in size; luciferase light after 4 h
# Lassa entry inh: inhibitors of Lassa virus binding or cell entry | Lassa virus pseudotype entry inhibition, cell reporter; control for the full effect not named in the record | hit rate 1.2% among 300,000 | AID 540256 | Potency, µM (doses to about 37.9 µM), for inactives: at the top dose activity change, negative = inhibition, actives largely listed as inhibitors; active means well fitted inhibition curve with a large enough effect; inconclusive means small, poorly fitted or top-dose-only effect, or effect the other way; inactive means flat fitted curve, though single readings scatter; tested in HEK293 cells; further: on the % scale 0 is the no-effect control and ±100 the full control effect; nearly all actives have a fitted effect of over 50% in size; luciferase read-out
# NS1 function inh: blocks influenza NS1 protein function. S. cerevisiae slowed by influenza A NS1, growth recovery by OD600. Potency, µM (series often up to 46.1 µM), for the others: at the top dose activity, positive = more growth. hit rate 0.4% among 270,000. AID 2326; active means well fitted rising curve with a large enough effect; inconclusive means small, poorly fitted or top-dose-only effect; inactive means no such curve, though single readings can be large or run the other way; further: nearly all actives have a fitted effect of over 50% in size
#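 In this qHTS, NS1 from influenza A is expressed in budding yeast, where it slows growth. Cells are switched from glucose to 2% galactose medium (pH 6.0, -URA), treated with compound, and growth recovery is read at OD600.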
# The depositor's hits bear a star; ? = inconclusive; . = no result given; & = joins results of further samples; [ ] = remark or other dose. Unless noted, the call rests on the fitted dose curve; in most records, active means well fitted curve in the direction sought with a large enough effect; inconclusive means small, poorly fitted or top-dose-only effect, or another doubt; inactive means no such curve, though single readings can be large; an effect the other way counts as inactive or inconclusive. Potency means the concentration at half of the fitted maximal effect.
mol	RE007 growth inh	NS1 function inh	2A StopGo	Cruzain inh Det	Cruzain inh noDet	Lassa entry inh	Marburg entry inh	SARS PLpro yeast
COc1ccc(NC(=S)NN2CCN(C)CC2)cc1	14%	4%	-7%	2.6%	3%	-1%	12%	1%
COc1ccccc1/C=C/c1nc(C#N)c(NCC(C)C)o1	.	.	-4%	6.9%	27%	?	-41%[46.1 µM]	.
CCOc1ccc(NC(=O)C2CCCN(C)C2)cc1 (configuration not stated)	26%	6%	-1%	.	.	.	.	1%
O=C(NCc1cccc(Cl)c1)c1ccc2c(c1)OCCO2	2%	-30%	71%[activator]	.	.	4%	3%	-5%
Cc1[nH]c2ccc(C(=O)OC(C)C(=O)N(C)c3ccccc3)cc2c1C (configuration not stated)	-8%	.	-34%	.	.	5µM*	14%	-7%
CN(C)CCOC(=O)CCCCCCCCC(=O)OCCN(C)C	4%	1%	-13%	.	.	1%	9%[14.2 µM]	1%
COc1ccc(/C=C/C(=O)N2CC(C)OC(C)C2)cc1OC (configuration not stated)	5%	8%	-5%	.	.	.	.	-9%
CN(C)S(=O)(=O)c1ccc(NC(=O)CSc2nnnn2C)cc1	-2%	-11%	-11%	.	.	.	.	-5%
CCOC(=O)C1CCN(C(=O)C23CC4CC(CC(C4)C2)C3)CC1	-1%	2%	4%	2.0%	5%	0%	5%	6%
Cc1ccccc1Cn1cc(NC(=O)CCCn2nc([N+](=O)[O-])cc2C)cn1	8%	-2%	0%	.	.	-29%[46.1 µM]	-2%[46.1 µM]	0%
CC1=C(C(=O)Nc2cccnc2)C(c2ccc(F)cc2)n2nc(-c3cccc(C)c3)nc2N1 (configuration not stated)	.	.	-15%	-3.9%	6%	-11%[46.1 µM]	?	.
O=C(N/N=C/c1ccc(O)cc1O)NC12CC3CC(CC(C3)C1)C2	-16%	1%	9%	.	.	?	-30%[46.1 µM]	-1%
COc1ccc(NC(=O)CSc2nc(-c3ccc(OC)cc3)[nH]c2-c2ccc(OC)cc2)cc1	.	.	12%	-5.2%	13%	11%[46.1 µM]	?	.
COc1ccc(CCNC(=O)Cn2c(C)c3cnn(-c4ccccc4)c(=O)c3c2C)cc1OC	.	.	-19%	-3.1%	1%	?	5%[46.1 µM]	.
O=C1CC(NC(=O)C(F)(F)F)c2cc3c(cc21)OCO3 (configuration not stated)	-9%	.	4%	.	.	8%	2%[46.1 µM]	0%
O=[N+]([O-])c1ccc2nc(NS(=O)(=O)c3ccccc3[N+](=O)[O-])sc2c1	-3%	8%	51%[activator]	.	.	11%[46.1 µM]	?	-5%
O=C(c1cccc2ccccc12)N1CCN(c2ccc([N+](=O)[O-])c(N3CCOCC3)c2)CC1	-6%	6%	-27%	-13%	?	?	?	4%
CC(=O)Nc1ccc(/C=C/c2ccc3c([N+](=O)[O-])cccc3n2)cc1	-16%	.	44%[activator]	.	.	20%	-2%[46.1 µM]	-3%
COc1ccc(CCNC(=O)c2cc(-c3ccc(C)cc3)nc3n[nH]c(-c4ccc(F)cc4)c23)cc1OC	.	.	-9%	0.3%	1%	28%[46.1 µM]	.	.
CCC1CCCCN1C(=O)COc1ccccc1NC(C)=O (configuration not stated)	17%	.	-20%	.	.	-25%	4%[46.1 µM]	-3%
COc1ccccc1NS(=O)(=O)c1ccc(NC(=O)c2[nH]nc(OC)c2[N+](=O)[O-])cc1	0%	-19%	-1%	.	.	14%	14%	-4%
Cc1ccc(C2(C)NC(=O)N(CC(=O)N3CC(=O)Nc4ccccc43)C2=O)cc1 (configuration not stated)	-14%	.	-5%	.	.	5%[46.1 µM]	8%[46.1 µM]	3%
C=CCN1CC(=O)N2C(C)c3[nH]c4ccccc4c3C[C@H]2C1=O (some centres not stated)	4%	4%	-17%	.	.	.	.	-1%
COC(=O)CCN(C(=O)c1cc([N+](=O)[O-])cc([N+](=O)[O-])c1)c1ccccn1	-24%	5%	10%	.	.	3%	-3%[46.1 µM]	-1%
C/C(CC(=O)N(C(C)C)C(C)C)=N\NC(=O)COc1ccc(Br)cc1Br	0%	11µM*	?	-7.3%	?	0%	-1%[46.1 µM]	-2%

# The listing continues.
mol	RE007 growth inh	NS1 function inh	2A StopGo	Cruzain inh Det	Cruzain inh noDet	Lassa entry inh	Marburg entry inh	SARS PLpro yeast
O=C(CCCOc1ccc(Cl)cc1)N1CCCCC1	-9%	-18%	.	1.7%	21%	10%	9%	-7%
O=C(O)c1ccccc1/C=N/N1CCN(C2c3ccccc3-c3ccccc32)CC1	2%	6%	-23%	.	.	-3%[46.1 µM]	0%[46.1 µM]	-3%
CC1(C)Cc2nc(N)c(=O)sc2C1	14%	7%	.	-1.6%	-7%	2%	3%	0%
Cc1ccc(Nc2nnc(-c3ccc(C)c(S(N)(=O)=O)c3)c3ccccc23)cc1	.	.	24%	-5.8%	0%	-22%[46.1 µM]	.	.
CCC(C)NC(=O)c1ccccc1NC(=O)C(C)N(c1ccccc1)S(C)(=O)=O (configuration not stated)	3%	8%	-3%	0.4%	-4%	8%	0%&-21%	6%
COc1ccc(-[n+]2c(-c3ccccc3)cc(-c3ccc(C)cc3)cc2-c2ccccc2)cc1	-12%	-85%	?	.	.	?	?	-20%
CC(C)Nc1nc(NC(C)C)nc(Oc2ccc(OCc3ccccc3)nn2)n1	2%	2%	-6%	0.2%	2%	2%	?	-5%
CCCCN(CCCC)c1ncnc2nc[nH]c12	-6%	-80%	?	.	.	.	.	-5%
O=C(CN1CCN(Cc2ccccc2Cl)C1=O)NCc1ccco1	11%	0%	21%	1.0%	-2%	5%	?	1%
CC1CCC(C(C)C)C(OC(=O)Cn2c(-c3ccc(Br)cc3)[n+](C)c3ccccc32)C1 (configuration not stated)	5%&3%	-2%	?	.	.	?	?	-1%&-1%
CC1(C)Cc2nc(Cl)c(C#N)cc2CO1	-10%	11%	-23%	.	.	6%	-1%[46.1 µM]	-2%
CCOC(=O)C1CCN(C(=O)COc2cc(C)c(Br)cc2C)CC1	-16%	-74%	?	-1.9%	?	-9%	?	24%
CCOc1ccc(NC(=O)c2sc3nc(N4CCOCC4)c4c(c3c2N)CC(C)(C)OC4)cc1	5%	2%	-23%	.	.	.	.	0%
CC(OC(=O)c1ccccc1O)C(=O)Nc1ccc(Cl)cn1 (configuration not stated)	23%	-5%	-6%	.	.	1%	2%[46.1 µM]	-1%
CCN(CC)c1ccc(CN(C(=O)c2ccco2)C2CCS(=O)(=O)C2)cc1 (configuration not stated)	0%	17%	3%	3.6%	-4%	?	-15%	5%
CC1CCCC(NC(=O)c2ccc3snnc3c2)C1C (configuration not stated)	-11%	-7%	14%	.	.	.	.	-7%
CC(=O)c1ccc(S(=O)(=O)N2CCN(C(=O)CSc3ccc(C)c(C)c3)CC2)cc1	-27%	-17%	-16%	.	.	-10%	3%[46.1 µM]	2%
COc1cc2c(cc1OC)C(C(=O)N1CCCCC1)C(c1ccccc1F)N(C)C2=O (configuration not stated)	-9%	-8%	-16%	2.7%	-1%	-23%	16%&16%[46.1 µM]	-7%
CC(NC(=O)c1cc(-c2cccs2)on1)c1ccccc1 (configuration not stated)	4%	4%	19%	3.1%	-2%	1%	6%	11%
Cc1ccc(CC2C(=O)N(CC(=O)O)C(=O)C2C)cc1 (configuration not stated)	1%[3.69 µM]	2%	3%	4.5%	-1%	-4%	0%	9%
COC(=O)Cn1cnc2scc(-c3ccc(C)cc3)c2c1=O	7%	-146%	-23%	.	.	4%	?	-26%
COc1ccc(NC(=O)c2cn(CCC#N)nc2-c2cccc(Br)c2)cc1	2%	4%	12%	.	.	.	.	4%
Cc1cc(-n2cnnn2)cc(C)c1S(=O)(=O)N(C)c1ccccc1	-9%	-23%	-3%	.	.	1%[46.1 µM]	?	3%
CCN(CC)Cc1cc(C(C)(C)C)cc(N2CCOCC2)c1O	-18%	.	-14%	.	.	10%[46.1 µM]	?	.
CCc1ccccc1NC(=S)Nc1cc(OC)c(NC(=O)C(C)C)cc1OC	4%	17%	39%[activator]	.	.	-15%	?	4%

# Additional compounds follow:
mol	RE007 growth inh	NS1 function inh	2A StopGo	Cruzain inh Det	Cruzain inh noDet	Lassa entry inh	Marburg entry inh	SARS PLpro yeast
O=C(CNC(=O)c1ccc(F)cc1)OCc1cc(=O)n2nc(C3CCCCC3)sc2n1	.	.	-3%	-5.4%	3%	8%[46.1 µM]	.	.
O=C(CCNc1n[nH]c(=O)[nH]c1=O)N1CCCCC1	-14%	0%	17%	6.1%	-10%	4%	19%	9%
Cc1ccc(Cn2nc(C)c(NC(=O)c3noc4c3CCCCC4)c2C)cc1	-4%	-33%	?	-11%	15%	?	-26%	-17%
CC(C)C(C(=O)NC(C)(C)C)N1C(=O)c2ccccc2C1=O (configuration not stated)	-1%	-3%	1%	-3.0%	-3%	21%	9%	-5%
COc1ccccc1C(=O)OCc1c(F)cccc1Cl	-28%	-20%	55%[activator]	-2.0%	-3%	0%	16%	-2%
O=C(CCS(=O)(=O)c1ccccc1)Nc1ccc2c(c1)OCO2	1%	4%	52%[activator]	.	.	18%	19%[46.1 µM]	-2%
C=C(c1ccccc1)c1ccc(N(C)C)cc1	0%	2%	8%	.	.	17%[46.1 µM]	-19%[46.1 µM]	0%
CCCc1nc2oc3c(=O)[nH]cnc3c2c2c1CCCC2	-12%	-11%	-21%	-2.6%	-16%	1%	41%	-1%
O=C(Nc1ccc2c(c1)CCC2)C1CCCN(c2ncccn2)C1 (configuration not stated)	6%	-2%	0%	2.7%	-4%	22%	?	12%
O=C(O)C1C2CCC(O2)C1C(=O)Nc1ccc(OC(F)F)cc1 (configuration not stated)	12%	-9%	-12%	.	.	-26%[46.1 µM]	?	0%
Cc1ccc(CNC(=O)CCc2c(C)nc3ncnn3c2C)cc1	16%	-1%	-20%	3.7%	-8%	-2%	6%	2%
CC(NC(=O)C1CCCCC1)C(=O)NC1=NCCS1 (configuration not stated)	-4%[3.69 µM]	1%	-17%	-1.2%	-7%	10%	-6%	-12%
CN(Cc1ccccc1)C(=O)C1CCN(S(=O)(=O)c2cccc3nsnc23)CC1	4%	0%	5%	.	.	.	.	6%

# Assay outcomes: PubChem, National Center for Advancing Translational Sciences (NCATS)
